Assay outcomes deposited in PubChem BioAssay by ICCB-Longwood Screening Facility, Harvard Medical School.
S aureus helic = S. aureus DNA helicase inhibition; purified S. aureus helicase, fluorescence unwinding assay; about half of the hits fall short of the stated cut; inhibition, %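 (tested at about 80 µM)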; hit rate 0.05% among 120,000;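 active means both duplicates at 50% or more, or one of them with a favoured structure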;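 further: 0% = mean of negative control wells and 100% = mean of positive control wells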
MgrA-DNA mod = alters Staphylococcus aureus MgrA binding to DNA; hit rate 0.13% among 84,000; fluorescence polarization; AID 602314; inhibition, %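 (about 10 µg/mL by stock and volumes)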;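 active means above 50% in either of two replicates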;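 further: 0% = protein plus DNA without compound and 100% = DNA alone without protein; higher means less MgrA bound to DNA so lower polarization; one replicate is shown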
* hit, by the source's call; . = not tested or not shown; & = joins results of further samples. An excerpt; the hit share may differ from the screen's.

SMILES	S aureus helic	MgrA-DNA mod
O=C(Nc1ccccc1)n1nccc1-c1cc(-c2ccccc2)no1	-13.0	.
CC1=NN(c2ccccc2)C(=S)/C1=C\N1CCCCC1	-14.0	.
CC1=CC(=O)C2=C(C)CC[C@@H]3[C@H](OC(=O)[C@H]3C)[C@@H]12	.	0.5
C[C@H](NS(=O)(=O)c1ccccc1)C(=O)Nc1ccc(S(=O)(=O)N2CCCC2)cc1	35.0	.
CNS(=O)(=O)c1ccc2c(c1)oc(=O)c1cc(S(=O)(=O)NC)ccc12	6.0	-1.0
Cc1cc(C)c2oc(C(=O)N3CCN(c4cccc(Cl)c4)CC3)cc(=O)c2c1	12.0	.
O=C(c1ccco1)N(Cc1nc(-c2ccccc2)no1)C1CCCCC1	8.0	-1.5
CCCCn1cc(/C=N/NC(=O)c2cc3cc(OC)ccc3n2C)c2ccccc21	0.0	.
CC[N+](CC)(CC(=O)Nc1c(C)cccc1C)Cc1ccccc1	.	4.4
Cc1cc(C)n(CCCNC(=O)CSc2nc(C)c(C)n2C2CCCCC2)n1	-6.0	.
CCc1ccc(C(=O)OCC(=O)N2CCCc3ccccc32)cc1	-4.0	.
CC(C)C(C)(C#N)NC(=O)CSc1nnc(SCc2ccc(Cl)cc2)s1 (stereo unspecified)	9.0	.
CC1=C(C(=O)NN)Sc2ccccc2N1	.	0.7
CC(=O)N1c2ccc(S(=O)(=O)N(C)Cc3ccco3)cc2CC1C (stereo unspecified)	11.0	.
N#Cc1cnc(-c2cccnc2)nc1N	.	-3.6
CC(C)N(C(=O)N1CCC(c2ccccc2F)CC1)C(C)C	22.0	-1.2
COCC(=O)Nc1cccc(C(F)(F)F)c1	9.0	0.8
CN(NS(=O)(=O)c1ccc(C(F)(F)F)cc1)c1cnn(C)c(=O)c1Cl	23.0	.
O=C(COC(=O)c1ccccc1)Nc1ccc2c(c1)OCO2	2.0	-1.4
CCOC(=O)N1CCc2c(sc(N)c2C#N)C1	.	1.1
CCOC(=O)C(C#N)=C1SC2CS(=O)(=O)CC2S1 (stereo unspecified)	-1.0	3.0
CCCCn1c(CCNC(=O)c2cccs2)nc2ccccc21	-10.0	.
Cc1cc(C)c2[nH]c(=O)cc(C(=O)O)c2c1	9.0	-0.6
O=C(Cn1c(=O)c2c(ncn2Cc2ccccc2)n(Cc2ccccc2)c1=O)NC1CC1	-13.0	.
O=C(O)[C@@H]1CSC(c2cccs2)N1 (stereo partly specified)	.	2.2
CC1C(O)C(C)C(c2ccccc2)N(C)C1c1ccccc1 (stereo unspecified)	22.0	.
C=CCc1ccc(OC(C)C(=O)NC(=O)NC)c(OC)c1 (stereo unspecified)	5.0	.
CCc1ccccc1OC(=O)c1ccc2c(c1)OCO2	5.0	.
COc1ccc(CN=C(Nc2ccccc2)SC2CC(=O)N(C)C2=O)cc1 (stereo unspecified)	21.0	-0.8
Cc1[nH]c(=O)[nH]c1CN1CCCCC1	7.0	.
Cn1c(C(=O)O)cc2cc(Cl)ccc21	10.0	-0.8
CCN1CCN(C(=O)C(NS(=O)(=O)c2ccc3nc(C)sc3c2)C(C)C)CC1 (stereo unspecified)	6.0	.
Cc1ccc(-c2nnc3c4cnn(Cc5ccccc5)c4ncn23)cc1	1.0	.
N=C1C(c2ccccc2)=C(O)CN1CC1CCCO1 (stereo unspecified)	24.0	1.4
Cc1c(C(=O)NN)sc2nc3n(c(=N)c12)CCC3	-1.0	.
Cn1cccc1CNCCN1CCOCC1	22.0	-7.0
CN(CCO)C(=O)c1ccc(-c2nn(C)c(=O)c3ccccc23)cc1	4.0	1.1
COC(=O)c1cccc(NC(N)=O)c1	5.0	.
CC1(C)Cc2c(C#N)c(SCC(=O)c3ccc(Br)cc3)nc(N3CCOCC3)c2CO1	.	2.1
Cc1ccc(NC(=O)Cn2ncc3c4ccccc4n(Cc4ccccc4)c3c2=O)cc1	8.0	.
N#CC1=C(N)OC2=C(C(=O)CCC2)C1C1CCCCC1 (stereo unspecified)	18.0	.
CC1CCCC(C)N1CC(O)Cn1cc(/C=N/NC(=O)c2ccncc2)c2ccccc21 (stereo unspecified)	18.0	.
COc1ccc([N+](=O)[O-])cc1N1C(=O)C2C3C=CC(CC3)C2C1=O (stereo unspecified)	.	-1.3
CCS(=O)(=O)c1ccc2oc(SCc3cn4ccccc4n3)nc2c1	-41.0	.
O=C(NCC(c1ccc(F)cc1)N1CCOCC1)c1ccc(Br)o1 (stereo unspecified)	15.0	0.4
CSc1nn(-c2ccccc2)c(N)c1C#N	.	-2.5
CCC(C)(C)C(=O)O[C@H]1C[C@@H](C)C=C2C=C[C@H](C)[C@H](CC[C@@H]3C[C@@H](O)CC(=O)O3)[C@H]21	.	-1.2&-1.6
CCCCN(CC)C(=O)Cn1ncc2c3ccccc3n(C)c2c1=O	1.0	.
S=c1[nH]nc(CN2CCOCC2)n1-c1ccccc1	0.0	0.8
COc1ccc(OCC(O)CN2CCN(C)CC2)cc1 (stereo unspecified)	-16.0	-4.0
CCN1C(=O)C(C(=O)NC(C)c2ccccc2)C2CC1(C)Oc1ccccc12 (stereo unspecified)	-2.0	1.0
O=C(Nc1ccc2c(c1)OCO2)C1Sc2nc(-c3ccccc3)cn2N=C1c1ccccc1 (stereo unspecified)	21.0	.
Cc1nn(-c2ccccc2)c(CSCC(=O)Nc2ccc3c(c2)OCO3)c1C#N	-5.0	.
CC1=NN(c2ccc(Cl)cc2)C(=O)C1	4.0	1.1
CC1(C)CC(=O)C2=C(C1)OC1=C(C(=O)CC(C)(C)C1)C2c1ccc2c(c1)OCO2	17.0	0.2
COc1cc(C(=O)NC(Cc2ccccc2)c2nc3ccccc3[nH]2)cc(OC)c1OC (stereo unspecified)	9.0	1.0
COc1ccc2c(c1)c1nc(SC)n(C)c(=O)c1n2C	15.0	.
CC(=O)Oc1cccc(-c2nc(C#N)c(N)o2)c1	-2.0	.
Nc1nc(SCc2ccccc2Cl)n[nH]1	0.0	.
O=c1[nH]c(O)c(C=NCC2CCCCC2)c(=O)[nH]1	3.0	.

Three compounds out of the list, sorted by length of the SMILES, ascending.
SMILES	S aureus helic	MgrA-DNA mod
Nc1nc(SCc2ccccc2Cl)n[nH]1	0.0	.
COc1ccc(OCC(O)CN2CCN(C)CC2)cc1 (stereo unspecified)	-16.0	-4.0
CC(=O)Oc1cccc(-c2nc(C#N)c(N)o2)c1	-2.0	.

The list continues.
SMILES	S aureus helic	MgrA-DNA mod
CCCn1c(N)cc(=O)n(C)c1=O	3.0	.
N#Cc1c(-c2ccco2)cc(-c2ccccc2)nc1N	-26.0	.
CCOC(=O)C1=C(CSc2nnc(SCC)s2)NC(=O)NC1CC (stereo unspecified)	-14.0	.
COc1cscc1C(=O)O	.	-0.2
COc1cc2ncnc(Nc3ccc(F)c(F)c3)c2cc1OC	.	3.5
CCn1c(CN2CCc3sccc3C2c2cccs2)nc2cc(S(=O)(=O)N(C)C)ccc21 (stereo unspecified)	-9.0	.
O=c1cc(Cl)nc2ccc(Cl)cn12	5.0	.
Cc1cc(Cl)c(S(=O)(=O)N(C)CC(=O)O)cc1OCC(N)=O	6.0	-0.3
O=S(=O)(NCC(Nc1ccccc1)c1ccccc1)c1ccccc1 (stereo unspecified)	-13.0	1.6
CCOC(=O)c1ccc(Nc2nc3nonc3nc2NOC(C)=O)cc1	.	-2.1
CC1CC(=O)N(CC(=O)NCc2ccc3c(c2)OCO3)c2ccccc2S1 (stereo unspecified)	-5.0	.
COc1ccc(/C=C2\SC(=S)N(CC(=O)O)C2=O)cc1Oc1ccc([N+](=O)[O-])cc1[N+](=O)[O-]	.	10.4
NS(=O)(=O)c1ccccc1NC(=O)NCc1ccc(F)cc1	-24.0	.
O=C(Oc1ccc(Cl)cc1)c1csc(COc2ccc3nonc3c2)n1	.	-0.6
COc1ccc(C(N)CC(=O)O)cc1 (stereo unspecified)	-5.0	1.8
Cc1ccc(/C=C2\SC(=O)NC2=O)o1	.	-0.5
Cc1noc(C)c1S(=O)(=O)NCc1ccc2c(c1)CCO2	.	-1.9
C/C(C=Nc1c(C)n(C)n(-c2ccccc2)c1=O)=C/c1ccccc1	7.0	0.0
CC(=O)N1CCN(C(=O)/C(C#N)=C/c2ccccc2)CC1	16.0	.
O=C(O)COc1ccc(/C=N/O)cc1Br	15.0	-1.2
Cc1cc(N)nc(SCCCN(C)C)n1	-10.0	.
CN(CC(=O)Nc1ccc2c(c1)OCO2)Cc1ccccc1	5.0	-4.7
COCn1c(-c2ccccc2)nc2ccccc21	6.0	1.0
COc1ccc(OC)c(-n2cc(-c3ccccc3)nc2SC)c1	4.0	-1.3

6 compounds picked at random from the list so far, as already listed:
SMILES	S aureus helic	MgrA-DNA mod
O=C(O)COc1ccc(/C=N/O)cc1Br	15.0	-1.2
Cc1cc(N)nc(SCCCN(C)C)n1	-10.0	.
Cc1noc(C)c1S(=O)(=O)NCc1ccc2c(c1)CCO2	.	-1.9
COc1ccc(C(N)CC(=O)O)cc1 (stereo unspecified)	-5.0	1.8
O=C(Oc1ccc(Cl)cc1)c1csc(COc2ccc3nonc3c2)n1	.	-0.6
COCn1c(-c2ccccc2)nc2ccccc21	6.0	1.0

The results go on:
SMILES	S aureus helic	MgrA-DNA mod
COc1cc2c(cc1NC(=O)c1ccccc1)oc1ccccc12	8.0	1.6
COc1ccccc1C1=NOC(C(=O)N2CCCC2)C1 (stereo unspecified)	-12.0	.
Cc1cc(NC(=S)NCc2ccccc2)n[nH]1	-10.0	.
CN1CCN(C(=O)c2ccc(/C=C3/SC(=S)N(C)C3=O)cc2)CC1	3.0	.
Cc1ccc(-c2nnc(NC(=O)C3CCCCC3)s2)cc1	9.0	.
CC1CCCN(c2ccc3nc4ccccc4c(=O)n3n2)C1 (stereo unspecified)	29.0	1.1
N#CCCN(Cc1cccnc1)C(=S)NC1CC2C=CC1C2 (stereo unspecified)	.	0.4
CC1Cc2ccccc2N1CC(=O)NCCCc1ccccc1 (stereo unspecified)	1.0	.
O=C(NCc1ccccc1)C1CCCN(c2ncccn2)C1 (stereo unspecified)	7.0	3.2
Cc1cccc(CC(=O)NCc2ccc3[nH]c4c(c3c2)CCCC4)c1	14.0	0.6
CCOCc1cnc(C)nc1NCC(=O)c1c(C)n(C)c2ccc(OC)cc12	16.0	.
COCCn1c(C)cc(C(=O)Cn2cnc3c(cnn3C)c2=O)c1C	4.0	.
CC(C)NC(=O)Cn1ccc2ccc(C#N)cc21	5.0	-1.3
CC(C)(C)OC(=O)N1CCN(c2ccc(NC(=O)Cn3nnc(-c4ccccc4)n3)cc2)CC1	4.0	-3.8
N#Cc1ccccc1NC(=O)Nc1cccs1	-2.0	-2.0
CCCn1c(=O)c(C(N)=O)cn(C2CC2)c1=O	-19.0	.
COc1ccc(S(=O)(=O)N(CCO)C2CCCCC2)cc1	2.0	-0.6
COCCN1C(=O)c2oc3cc(C)c(C)cc3c(=O)c2C1c1ccccc1F (stereo unspecified)	3.0	.
O=C(O)/C=C/C(=O)Nc1cccc2c1CCCC2	.	-4.2
C=CCOC(=O)Oc1ccc2c(=O)c(Oc3ccccc3Cl)coc2c1	3.0	.
O=C(Nc1cccc(Cl)c1Cl)N1CCCN(Cc2ccc(F)cc2)CC1	.	-0.9
CCN(C(=O)C12CCC(C)(C(=O)C1)C2(C)C)c1ccccc1 (stereo unspecified)	-2.0	-0.2
COc1cccc(-c2cc(C(=O)Nc3cnn(C45CC6CC(CC(C6)C4)C5)c3)on2)c1	20.0	.
O=c1ccc2ccc(O)cc2o1	-71.0	.
COc1ccc2c(c1)NC(c1cccnc1)=NC(c1ccccc1)=N2	8.0	.
CC1CC(CC(=O)NNc2nc(-c3ccccc3)cs2)C(=O)O1 (stereo unspecified)	15.0	.
N#CCOC(=O)c1ccc2c(c1)S(=O)(=O)c1ccccc1C2=O	3.0	.
CSc1nnc(-c2ccncc2)n1C	6.0	-27.5
CCN(CC(=O)NC1CCCCCC1)S(=O)(=O)c1ccc(Cl)cc1	4.0	0.2
CCc1cc(C(=O)Cc2nc(C)cs2)c(O)cc1O	-3.0	1.2
S=C(NCc1ccccc1)Nc1cccc2ccccc12	7.0	-7.4
O=C(NCc1ccc(Cl)cc1)NC1CCCCC1	9.0	.
O=C(O)c1cc(-c2cccs2)nn1-c1ccccc1	14.0	0.3
COc1ccc2oc(C(=O)OCC(=O)c3ccc4c(c3)OCO4)c(C)c2c1	-2.0	.
Cn1nnnc1SCc1cccc(S(=O)(=O)N2CCOCC2)c1	21.0	.
C=CCN(CC=C)Cc1ccc(C(=O)OC)o1	4.0	-0.2
Cc1cc(C)c(C(=O)N2Cc3ccccc3NC2=S)c(C)c1	-3.0	-0.3
O=C(NC1CC1)c1cccc(C(F)(F)F)c1	.	-1.5
Cc1cc(Nc2ncc(Cl)cc2Cl)n(-c2ccccn2)n1	-12.0	-0.3
CC(C)CCNC(=O)Cc1ccc(-n2c(=S)[nH]c3ccccc3c2=O)cc1	-13.0	2.2
O=C(NCCCn1ccnc1)C1(c2cccs2)CCOCC1	1.0	.
N#Cc1ccccc1Sc1ccccc1C(=O)N(CC1CCCO1)C1CCS(=O)(=O)C1 (stereo unspecified)	9.0	.
COc1ccccc1OCCC(=O)C(C#N)c1nc2ccccc2[nH]1 (stereo unspecified)	4.0	.
O=C1c2cccc3cc([N+](=O)[O-])cc(c23)C(=O)N1CCc1ccccn1	.	3.5
O=C1CSC(c2cn(-c3ccccc3)nc2-c2ccccc2)N1CCCl (stereo unspecified)	-13.0	0.7
O=S(=O)(c1ccc(F)cc1)n1nc(C(F)(F)F)c2cnccc21	-33.0	.
O=C(OCCN1CCN(c2cc(C(F)(F)F)nc3c(Cl)cccc23)CC1)C1CC1	.	-0.1
O=C(COC(=O)Cc1c[nH]c2ccccc12)NCc1ccco1	6.0	.
CCOc1cccc2cc(C(N)=O)c(=Nc3ccc(F)cc3)oc12	12.0	.
